Calb FLC: C. albicans growth modulation with fluconazole. C. albicans CaCi-2 (fluconazole-resistant clinical isolate) + fluconazole, Alamar Blue growth, 48 h. growth inhibition, % (test concentration not listed). 300,000 compounds, 0.57% hits;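 active = most replicates above 75%; inconclusive = exactly half above 75%; inactive = most below 75%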;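 also: all wells also contain fluconazole at 8 µg/ml as a sub-toxic cotreatment; 0% = median of DMSO wells and 100% = median of geldanamycin control wells; wells of about 8 µL received 7.5 nL stock; the first replicate is given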
RanGTP-Imp inh: inhibitors of RanGTP-importin-beta interaction, primary screen, biochemical, FRET, CFP-Ran, YFP-importin-beta, homogeneous; cell-free CFP-Ran/YFP-importin-beta FRET ratio; inhibition, % (test concentration not listed); 300,000 compounds, 1.1% hits;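 active = most replicates above 15%; inconclusive = exactly half above 15%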;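 also: 0% = DMSO wells and 100% = Ran loaded with GDP instead of GTP; wells of about 40 µL received 100 nL stock; the first replicate is given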
Bfl-1 A1 inh: inhibitors of the anti-apoptotic protein A1, read as caspase activation; MEF A1-2A-BIM cells, Caspase-Glo 3/7 luminescence, 3 h; percent of clofoctol response, vehicle zero; caspase activation, % (no concentration beside the values); 330,000 compounds, 0.066% hits;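 active = over half of replicate activation scores above 10%, or exactly half above 10 with the replicate mean above 10; inconclusive = replicate mean below 10 yet half the replicates above 10; inactive = over half of replicates below 10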;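 also: wells of about 30 µL received 50 nL stock; many hits fall short of the cut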
AF4-AF9 inh: blocks AF4 peptide binding to human AF9; AlphaScreen, biotin-AF4 peptide binding to FLAG-AF9; inhibition, % at 10 µM; 350,000 compounds, 0.47% hits;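 active = every replicate reaching a set inhibition limit, whatever the replicate mean, cut at about 25% in these data; inconclusive = mean inhibition reaches that limit but some replicates miss it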;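 also: 0% = plate neutral control median and 100% = total signal loss; the record names both 10 and 1 µM as test concentration; the first replicate is given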
Target sequence (P42568 whole entry, looked up): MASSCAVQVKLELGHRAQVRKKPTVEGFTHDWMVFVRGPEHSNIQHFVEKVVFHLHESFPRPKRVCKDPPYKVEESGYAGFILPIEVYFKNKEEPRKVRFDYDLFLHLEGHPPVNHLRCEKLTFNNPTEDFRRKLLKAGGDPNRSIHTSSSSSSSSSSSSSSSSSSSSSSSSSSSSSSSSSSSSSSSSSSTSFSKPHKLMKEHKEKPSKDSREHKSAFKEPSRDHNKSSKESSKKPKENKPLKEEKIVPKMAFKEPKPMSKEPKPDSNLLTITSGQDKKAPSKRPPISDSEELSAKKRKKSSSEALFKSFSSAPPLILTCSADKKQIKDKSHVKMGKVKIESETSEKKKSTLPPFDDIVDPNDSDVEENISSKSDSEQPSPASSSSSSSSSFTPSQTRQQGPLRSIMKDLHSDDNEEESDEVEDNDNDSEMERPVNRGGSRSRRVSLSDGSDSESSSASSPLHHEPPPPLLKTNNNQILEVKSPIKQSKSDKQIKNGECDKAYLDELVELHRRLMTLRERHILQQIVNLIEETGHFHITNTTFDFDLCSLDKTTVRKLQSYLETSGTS
Beta cell apopt: blocks beta cell apoptosis | INS-1E cytokine-induced death, ATP luminescence, 48 h; percent of positive-control rescue, neutral wells zero | protection from apoptosis, % (test concentration not listed) | 300,000 compounds, 0.8% hits;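 active = all replicates at 75% or more, or half of them and the mean; inconclusive = half reach 75% but not the mean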;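 also: 0% = cytokine-treated negative control wells and 100% = positive control rescue; higher means more ATP so stronger rescue from cytokine killing; wells of about 40 µL received 100 nL stock; the first replicate is given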
Ecoli rRNA inh: inhibitors of bacterial rRNA selective over humanized ribosomes; E. coli WT GFP vs humanized-ribosome RFP mutants, fluorescence, 24 h; stronger effect = lower value; DMSO median 0, no signal -100; GFP signal change (wild-type ribosome), % (concentration not given with the values); 350,000 compounds, 1.6% hits;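 active = significant combined selectivity score with lowered wild-type GFP, culture density cut under 30%, mutant RFP and density less affected; inactive = any of these conditions unmet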; also: one replicate is shown; some compounds called inactive have numbers as strong as hits
Vif TR-FRET: HIV-1 Vif–A3G interaction blockers – biochemical, TR-FRET, GST-Vif 1-94, biotin-A3G peptide, dose response retest, primary screen (AID 1117319); TR-FRET GST-Vif / biotin-A3G peptide binding; higher % means a stronger effect; test concentration not given here; strong numbers were not always called active; one-dose inhibition, %; IC50 in µM for titrated hits; 260,000 compounds, 0.57% hits;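 active = above the screen mean plus three standard deviations and confirmed in dose response; inconclusive = results disagree or hit not tested in dose response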;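 also: Vif residues 1-94 fused to GST binding biotinylated APOBEC3G peptide 110-148; 0% = full assay without inhibitor and 100% = GST in place of GST-Vif; retest series ran down from 100 µM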
T cruzi repl: T. cruzi replication inhibition; 300,000 compounds, 1.4% hits; inhibition, % (no concentration beside the values); T. cruzi beta-gal in NIH3T3, luminescence, 90 h;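 active = mean inhibition across valid replicates above about 55%, limit read from the data; inconclusive = mean below that limit but half or more replicates reach it; inactive = mean below it, under half of replicates reach it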;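 also: signal also drops with host cell toxicity which is not excluded here; 0% = plate median of DMSO wells and 100% = zero luminescence signal; higher percent means less beta-gal luminescence so fewer parasites; stock transfer was 50 nL into about 50 µL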
Ecoli rRNA inh OD600: recorded beside Ecoli rRNA inh, whose call it bears; OD600 change, %; measured here: OD600 growth;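 optical density of the mix in the first replicate; 0 = DMSO median and -100 = no signal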
Ecoli rRNA inh RFP: recorded beside Ecoli rRNA inh, whose call it bears; RFP signal change, %; measured here: RFP humanized mutant strains;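 first replicate; 0 = DMSO median and -100 = no signal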
Numbers without * were called inactive; ? = inconclusive; nt = no result given; & = joins results of further samples. Only part of the results is shown, so the mix of outcomes need not match the whole.

SMILES	Calb FLC	RanGTP-Imp inh	Bfl-1 A1 inh	AF4-AF9 inh	Beta cell apopt	Ecoli rRNA inh	Ecoli rRNA inh OD600	Ecoli rRNA inh RFP	Vif TR-FRET	T cruzi repl
COc1cc(C(C(=O)NCC2CCCO2)N(C(=O)Cn2nnc3ccccc32)c2ccc(C(C)=O)cc2)ccc1O (stereo unspecified)	7	?	-0.4	-9.1	1	1	-1	-0.1	nt	-3
S=c1[nH]nc(-c2ccc(Cl)cc2)n1-c1cccnc1	-4	5.2	-0.1	-4.3	-1	-3	-2	-2.1	-12%	4
COc1ccccc1-n1c(SC(C)C(=O)NCC2CCCO2)nc2cc(Cl)ccc2c1=O (stereo unspecified)	1	-2.9	1.9	-16	5	-5	-18	-4.4	-7%	23
COc1ccc(O[C@H]2C=C[C@@H](c3ccccc3)O[C@@H]2CO/N=C/C[C@@H]2C=C[C@H](OC(C)=O)[C@@H](COC(C)=O)O2)cc1	4	-3.1	0.9	nt	-3	nt	nt	nt	nt	11
CC1(C)C=Cc2cc(-c3coc4cc(O)cc(O)c4c3=O)cc(O)c2O1	2	?	0.2	7.1	-1	-28	-27	-9.4	nt	8
Nc1cccnc1Sc1cc(Cl)c(Cl)cc1Cl	-27	-4.8	0.6	nt	-4	nt	nt	nt	-12%	-10
CCOc1ccc(OCCOc2ncnc3ccccc23)cc1	5	0.0	-1.3	nt	-6	nt	nt	nt	2%	3
Cc1ccc(S(=O)(=O)CCC(=O)OCCOc2cccc(Br)c2)cc1	nt	nt	-0.7	-1.2	-3	-5	-12	1.7	-12%	nt
O=C(CSc1nccc(=O)[nH]1)Nc1ccc(N2CCOCC2)cc1	3	0.5	-1.5	-0.2	7	2	7	-1.5	1%	-6
COc1cc([N+](=O)[O-])ccc1NC(=O)NN1CCN(C)CC1	4	1.7	-0.7	0.2	-1	14	12	0.6	nt	-6
CC(=O)Nc1ccc(NC(=O)CCCCCN2C(=O)c3ccccc3C2=O)cc1	3	1.2	0.2	nt	0	nt	nt	nt	-3%	5
Cc1ccc(Sc2ccncc2S(N)(=O)=O)cc1	2	3.6	0.8	nt	-9	nt	nt	nt	nt	-3
COc1ccc2c(c1)c(=O)oc1cc(OCC(=O)N3CCCC(C)C3)ccc12 (stereo unspecified)	-11	-3.7	0.0	nt	2	nt	nt	nt	-1%	6
COc1ccc(NC(=O)N(C)C[C@H]2Oc3ccc(NC(=O)Nc4ccc(C(F)(F)F)cc4)cc3C(=O)N([C@H](C)CO)C[C@@H]2C)cc1	nt	nt	0.7	1.0&4.7	-7	0	2	1.3	-1%	nt
CC(C)/C=C/CN1CCC(Oc2ccc(C(=O)N3CCCC3)cc2)CC1	-9	-0.3	-0.4	-1.4	nt	4	12	-3.4	?	-13
COc1ccc(-c2ccc(=O)n(CC(=O)NCc3ccco3)n2)cc1	1	4.6	-0.4	nt	-1	nt	nt	nt	2%	-12
N#Cc1ccccc1OCC(=O)OCC(=O)c1c[nH]c2ccccc12	nt	nt	0.8	0.5	-7	-1	4	4.4	3%	nt
O=C(Nc1ccc2oc(-c3ccccc3)nc2c1)c1ccco1	?	0.2	-3.8	4.5	4	-5	4	1.6	-6%	3
CC(NC(=O)/C(C#N)=C/c1ccc([N+](=O)[O-])o1)c1ccccc1 (stereo unspecified)	2	3.8	-0.3	6.4	41	-16	2	38	nt	36
COc1cc(NC(=O)c2ccccc2Cl)c(OC)cc1NC(=O)CN1CCOCC1	1	1.4	-0.5	nt	5	nt	nt	nt	22%	-1
Cc1ccnc(NC(=O)CCC(=O)N(CC(=O)NCCc2ccccc2)c2ccc(F)cc2)c1	-4	5.5	-0.1	-1.6	-9	-1	6	-0.9	nt	16
CCCn1c(=O)c(C(=O)N/N=C/c2ccccc2F)c(O)c2ccccc21	-10	3.7	-0.6	-4.5	4	7	-7	1.2	-4%	-14
O=C(CN1C(=O)c2ccccc2C1=O)Oc1ccc(Cl)cc1	3	-1.6	-1.5	-1.4	-8	6	7	-1.5	-4%	-16
CC(C)(C)OC(=O)C[C@H]1C/C=C\C[C@@H](CC(=O)N(CCO)Cc2ccccc2)C(=O)N2CCC[C@@H]2COC1=O	nt	nt	-1.5	-11	-2	1	-8	-0.1	nt	nt
COc1cc(CNC2CCCC2)cc(OC)c1	17	6.6	-0.7	-4.2	-8	4	7	-4.0	2%	-35
Following part:
SMILES	Calb FLC	RanGTP-Imp inh	Bfl-1 A1 inh	AF4-AF9 inh	Beta cell apopt	Ecoli rRNA inh	Ecoli rRNA inh OD600	Ecoli rRNA inh RFP	Vif TR-FRET	T cruzi repl
ON=C1c2ccccc2-c2ccccc21	1	-4.0	0.1	-1.0	2	-49	-64	-6.0	-7%	4
CC(=O)Nc1ccc(S(=O)(=O)N2C(=O)c3cccc4cccc2c34)cc1	2	?	0.8	0.8	-6	16	8	2.9	nt	11
COc1ccc2oc(C(=O)OCC(=O)NCC3CCCO3)c(C)c2c1 (stereo unspecified)	-8	nt	0.1	-1.5	-3	2	-3	-0.1	nt	-5
O=C(O)c1c(-c2ccccc2)oc2ccc(O)cc12	-1	4.9	-0.1	-2.5	-6	7	8	0.6	4%	-6
COc1ccc(NC2c3ccccc3C(=O)N2Cc2ccc3c(c2)OCO3)cc1 (stereo unspecified)	11	-0.1	0.1	18	10	-13	-19	8.7	31%	0
COc1ccc(S(=O)(=O)NCC(c2ccc(F)cc2)N2CCN(C)CC2)cc1 (stereo unspecified)	-1	1.1	0.2	-1.3	-2	3	4	-1.5	5%	14
COc1cccc2c(=O)c3c(cnn3C)n(C)c12	14	126*	-0.2	nt	11	nt	nt	nt	20%	4
CC(C)COc1ccc(C(=O)NNC(=O)c2ccc(=O)[nH]c2)cc1	nt	nt	-0.7	0.0	1	3	8	0.0	9%	nt
O=C(c1cc2sccc2n1Cc1ccccc1)N1CCc2ccccc21	-12	-0.5	-1.2	nt	7	nt	nt	nt	-48%	15
CC(C)(C)C(=O)NC(=S)Nc1sc2c(c1C#N)CCCCC2	-2	1.1	0.4	nt	3	nt	nt	nt	nt	26
Cc1ccc(C2(c3noc(CN(C)CCO)n3)CCCC2)cc1	21	-2.3	-0.5	2.3	-9	-5	-2	-1.2	-1%	-4
COc1ccc(S(=O)(=O)N2CCC(C(=O)N(C)Cc3ccc(C)o3)CC2)cc1OC	nt	nt	0.1	-1.1	-2	nt	nt	nt	-4%	nt
Cc1cc(C)n2nc(SCC(=O)N(C)Cc3ccccc3)nc2n1	-7	-5.5	1.2	nt	3	nt	nt	nt	23%&-11%	-8
CCOCC(=O)Nc1ncc(S(=O)(=O)c2ccc([N+](=O)[O-])cc2)s1	36	-4.5	1.2	-1.2	-3	15	9	0.8	nt	17
Cc1ccc(-c2csc3ncnc(-n4cnc5ccccc54)c23)cc1	1	3.0	0.2	0.6	-2	-55	-74	-26	nt	-29
O=C(Nc1ccc(N2CCOCC2)cc1)c1ccc(Cl)c(S(=O)(=O)N2CCCC2)c1	nt	nt	-0.5	-0.3	44	2	7	2.0	0%	nt
O=c1[nH]c2ccccc2nc1N1CCOCC1	-4	-2.0	0.1	nt	-1	nt	nt	nt	-9%	-4
CCOC(=O)C1=C(CCc2ccccc2)NC(=O)NC1c1cccc([N+](=O)[O-])c1 (stereo unspecified)	27	-6.3	0.5	-5.3	-4	2	10	-3.1	nt	-7
CCN1CC2=C(OC(N)=C(C#N)C2c2cccs2)/C(=C/c2cccs2)C1 (stereo unspecified)	-6	-2.8	-0.9	nt	-4	nt	nt	nt	25%	42
COCCNC(=O)Cn1nc(-c2ccccc2C)ccc1=O	-4	-2.9	0.8	-0.2	1	6	5	0.9	nt	-12
Cc1cccc(-n2nc3c(c2NC(=O)C(C)C)CSC3)c1	-2	0.6	-0.9	-1.4	-6	6	3	-0.9	13%	-1
O=C(O)CCNC(=O)/C(=C\C=C\c1ccccc1)NC(=O)c1ccccc1	0	0.1	nt	1.7	nt	11	9	1.8	nt	1
COC(=O)C(Cc1ccccc1)NC(=O)CNC(=O)c1ccc(Br)o1 (stereo unspecified)	nt	nt	0.1	-13	0	0	2	-2.6	?	nt
O=C(Cc1ccc(Cl)cc1)Nc1ccncc1	-9	4.0	0.8	-1.4	39	13	17	3.0	nt	11
COCc1cc(CN2CCN(C)CC2)c(O)c2ncccc12	108*	26*	0.7	nt	24	nt	nt	nt	7%	32
The listing continues.
SMILES	Calb FLC	RanGTP-Imp inh	Bfl-1 A1 inh	AF4-AF9 inh	Beta cell apopt	Ecoli rRNA inh	Ecoli rRNA inh OD600	Ecoli rRNA inh RFP	Vif TR-FRET	T cruzi repl
Cc1ccccc1-c1ncc(CN2CCC(CO)(CCCc3ccccc3)CC2)cn1	-5	-4.6	0.2	1.9	-2	-48	-71	-6.6	3%	33
Nc1nc2ccccc2n1C(=O)c1ccccc1	5	2.8	-6.0	0.6	11	-15	11	11	nt	16
C=CCn1c(SCc2nc3ccccc3c(=O)[nH]2)nc2scc(C3CC3)c2c1=O	3	?	0.0	-6.1	8	-2	4	7.3	0%	-2
Cc1ccccc1OCc1nnc(SCc2cc(=O)[nH]c3ccccc23)n1-c1ccccc1	-4	-1.5	-1.0	21	9	7	4	-3.7	nt	21
CC(=O)N1c2ccc(S(=O)(=O)N3CCCC(C(=O)Nc4cc(C)cc(C)c4)C3)cc2CC1C (stereo unspecified)	-6	1.7	0.0	2.0	4	-3	-8	-0.1	nt	6
CCCn1c(SCC(=O)NCC2CCCO2)nc2c1c(=O)n(C)c(=O)n2C (stereo unspecified)	13	-5.0	0.4	nt	-1	4	-1	-2.6	12%	-10
NC(=O)C1CCN(c2nc(C3CC3)nc3c2nnn3Cc2ccccc2Cl)CC1	-3	3.0	0.1	nt	-1	nt	nt	nt	26%	23
O=C(Nc1ccc(F)cc1)c1ccc(CSc2ccc(Cl)cc2)o1	11	3.6	0.4	-2.0	-17	-32*	-16*	11*	-9%	-1
O=C(COC(=O)c1ccc[n+]([O-])c1)Nc1ccccc1OC(F)F	nt	nt	-0.6	5.5	0	7	11	1.5	-6%	nt
C=CCc1ccccc1OCC(=O)OCCNC(=O)c1cccnc1	-10	7.9	1.2	nt	nt	nt	nt	nt	21%	0
COc1ccc(Nc2ncnc3c2cnn3-c2cccc(C)c2)cc1OC	-5	-1.2	nt	-1.5	nt	5	17	1.6	nt	-25
CCC1(C)Cc2c(sc3nc(NN)n(C)c(=O)c23)CO1 (stereo unspecified)	10	4.5	0.6	nt	-3	nt	nt	nt	5%	3
CCN(CC)c1ccc(NC(=O)c2ccco2)cc1	-7	-1.7	-2.9	nt	9	nt	nt	nt	>100µM*	4
Cc1cccc(C)c1Nc1nnc(SCC(=O)c2ccc(Br)s2)s1	27	0.0	1.4	2.8	-6	-27	-32	-5.6	17%	26
O=C(Nc1nc(-c2ccccn2)cs1)c1ccc(F)c(S(=O)(=O)N2CCOCC2)c1	nt	nt	-0.5	1.1	89*	-9	-19	28	-27%	nt

Source: PubChem BioAssay (several laboratories)
